OX1R antag: antagonists of human orexin 1 receptor | O43613 | CHO/OX1R cells, Fluo-8 calcium fluorescence, orexin A | inhibition, % at 5 µM | 0.43% of 330,000 active;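 active = inhibition above its plate's threshold, mean inhibition of all tested compounds on the plate plus 3 SD, cut at about 37% in these data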;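 also: 0% = orexin A challenge wells and 100% = SB-334867-A antagonist wells; not every result past the cut was called active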
Target sequence (O43613 whole entry, looked up): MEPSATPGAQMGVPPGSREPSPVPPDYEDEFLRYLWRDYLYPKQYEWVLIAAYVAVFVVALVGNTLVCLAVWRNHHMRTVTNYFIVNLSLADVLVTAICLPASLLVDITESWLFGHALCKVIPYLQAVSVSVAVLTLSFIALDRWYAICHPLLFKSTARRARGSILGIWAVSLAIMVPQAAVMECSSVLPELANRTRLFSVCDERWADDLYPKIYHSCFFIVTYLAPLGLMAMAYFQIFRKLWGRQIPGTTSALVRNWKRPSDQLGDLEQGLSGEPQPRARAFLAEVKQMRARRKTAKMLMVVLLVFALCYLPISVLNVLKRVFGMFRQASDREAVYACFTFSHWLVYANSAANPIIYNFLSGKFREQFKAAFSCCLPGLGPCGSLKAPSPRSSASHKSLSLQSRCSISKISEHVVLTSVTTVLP
Numbers without * were called inactive. Not all compounds are listed, and most or all hits are left out here.

Molecule	OX1R antag
Cc1nc(C)c(C(=O)N(c2ccc(F)cc2)C(C(=O)NCC2CCCO2)c2ccccc2)s1 (configuration not stated)	9.8
Cc1ccc(C(=O)Nc2nc3ccccc3n2CCN2CCCC2)cc1	-26.5
CCc1ccccc1N(CC)C(=O)c1cn(C)c(=O)c2cc(OC)c(OC)cc12	-40.7
CC1=NN(C(=O)c2ccccc2-n2cccc2)C(O)(C(F)(F)F)C1 (configuration not stated)	-4.4
CCCCNC(=O)C1CCN(Cc2ccc(OCc3ccccc3)cc2)CC1	-6.0
CNC(=O)c1cc2ccc(OC)cc2oc1=O	7.7
CCOc1ccc(CN2CCN(C(=O)c3cccc(F)c3)CC2)cc1	-9.1
Cc1ccc(C)c(OCc2ccc(C(=O)N3N=C(C(F)F)CC3(O)C(F)F)o2)c1 (configuration not stated)	-5.3
CCCCOC(=O)Nc1nnc(CC)s1	-15.0
COC(=O)c1cnn(-c2ccc(Cl)cc2)c1/C=N/NC(N)=S	-13.5
O=C(Cn1nnc2ccccc2c1=O)N[C@@H](Cc1ccccc1)C(=O)O	3.5
Cc1nc2cc(C(=O)NCc3ccc4c(c3)OCO4)ccc2n1-c1ccc(Br)cc1	-18.9
Clc1ccc(Cn2nnc(-c3ccc(CN4CCOCC4)cc3)n2)cc1	-12.7
c1coc(CNc2c3c(nc4ccccc24)CCC3)c1	-7.5
Cn1c(=O)cc(N)n(Cc2ccccc2)c1=O	-10.6
O=C(NCc1cn2ccccc2n1)c1ccco1	-8.3
O=C(c1ccncc1)c1ccc(NS(=O)(=O)c2ccc(Br)s2)cc1	-7.2
C=CCn1nnnc1SCC(=O)Nc1ccc(OC)cc1	4.2
CCC(=O)NC(=S)Nc1ccc(NC(=O)COc2ccccc2)cc1	-26.8
O=C1NC2(CCC3(CC2)OCCO3)NN1c1ccc(Cl)cc1	-12.3
O=C(Nc1nccs1)c1sc2cc(Cl)ccc2c1Cl	-12.4
Cc1ccccc1CNC(=O)Cn1cnc(S(=O)(=O)N2CCCC2)c1	-11.9
COCCN(C(=O)COC(=O)CCC(=O)c1ccc(C)cc1)c1c(N)n(Cc2ccccc2)c(=O)[nH]c1=O	-8.2
COc1ccc(CNC(=O)CSc2ncn[nH]2)cc1OC	-19.2
COc1ccc(-c2noc(CNC(=O)c3ccoc3C)n2)cc1OC	-1.0
CC(C)(C)n1nnnc1C(c1cccs1)N(Cc1ccccc1)Cc1cccnc1 (configuration not stated)	-17.5
Nc1nc(NC(=O)/C=C/c2ccc(F)cc2)nn1-c1ccccc1	-27.1
CC(=O)Nc1ccc(OS(=O)(=O)c2cc(Cl)ccc2C)cc1	-23.8
O=C(Nc1nccs1)C1CCN(S(=O)(=O)c2cnc[nH]2)CC1	-13.9
O=C(CN(C(=O)CCC(=O)Nc1nccs1)c1cccc(F)c1)NCC1CCCO1 (configuration not stated)	-15.5
Cc1cc(C)nc(/N=C(\NC(=O)C(C)(C)C)Nc2ccccc2)n1	-8.9
CC(CN1CCCC1)OC(=O)c1cccc(F)c1 (configuration not stated)	-6.2
COc1ccc(C(CNC(=O)c2cncc(Br)c2)N(C)C)cc1 (configuration not stated)	-25.3
CCOc1ccc(/C=N/NC(=O)CC(=O)NCc2ccccc2)cc1	-33.2
Cc1ccc([N+](=O)[O-])c(OCCN2CCCCCC2)c1	-31.4
CC(C)Oc1cc(NC(=O)CS(=O)(=O)CC(=O)N(C)C)c(Cl)cc1Cl	-16.3
Cc1cc(NC(=O)Cn2nc(C(F)(F)F)c3c2CCC3)no1	-0.4
O=[N+]([O-])c1cc(S(=O)(=O)N2CCCC2)ccc1N/N=C/c1ccncc1	3.0
CC(=O)c1cccc(NC(=O)N2C3CCC2CC(O)(c2cccnc2)C3)c1 (configuration not stated)	-4.2
COc1ccc(OC)c(NC(=O)Cn2cc(C#N)c3ccccc32)c1	-15.7
Cn1cc(S(=O)(=O)N2CCOCC2)cc1C(=O)Nc1cccc(Cl)c1	-17.2
COc1ccc(CCNC(=O)CCCCCNC(=O)N2CCn3c2nc2ccccc23)cc1OC	-9.1
CCOC(=O)C(c1ccccc1)C(Nc1ccccc1)c1ccccn1 (configuration not stated)	-5.5
COc1ccc(C(=O)N/C(=C/c2cccnc2)C(=O)N2CCN(C)CC2)cc1OC	-9.1
COc1cccc(C2C(C#N)=C(N)Oc3c2oc(CO)cc3=O)c1 (configuration not stated)	-2.0
C#CCOCCOCCOCCNc1nc(N2CCN(C(=O)[C@H](C)n3cc(CCCN=C(N)N)nn3)CC2)nc(N2CCN(C(=O)[C@H](C)n3cc(CCCN=C(N)N)nn3)CC2)n1	-22.4
O=C(c1ccccc1)c1ccccn1	10.7
O=C(CSc1ccc2ccccc2n1)Nc1nsc(-c2ccc(Cl)cc2)n1	-8.9
CC(C)C(=O)NNC(=O)CSc1nnnn1C(C)C	15.7
CCCC(=O)NC(NC1CCS(=O)(=O)C1)C(Cl)(Cl)Cl (configuration not stated)	-10.3
CCCCCCC(=O)Nc1nc(C)c(-c2csc(Nc3cccc(OC)c3)n2)s1	-25.1
COc1ccccc1NC(=O)NCCCl	2.8
COc1ccc(CCNC(=O)CS(=O)Cc2nc(-c3ccc(C)cc3)oc2C)cc1OC (configuration not stated)	-34.8
O=C(Cn1c(O)c(/C=C2\C=Nc3ccccc32)sc1=O)Nc1ccc2c(c1)OCO2	18.7
CCN(Cc1cc2ccccc2[nH]c1=O)C(=O)C(C)C	-16.7
CCOC(=O)c1nnc(-c2ccc(C)cc2)nc1Oc1ccccc1Cl	4.8

Next part:
Molecule	OX1R antag
CNc1ccc(Br)cc(C(=O)/C=C/c2cc(OC)ccc2OC)c1=O	0.6
CC1CCCC(C)N1C(=O)CSc1nnc(CSc2ncccn2)n1C (configuration not stated)	-12.2
Cn1ncc(C(=O)Nc2ccc(OC(F)(F)F)cc2)c1-n1cccc1	-17.3
COc1cc(C(=O)NNC(=O)Nc2ccc([N+](=O)[O-])cc2)cc(OC)c1OC	-9.0
Cc1ccc(Cl)cc1Nc1nc(-c2cccnc2)cs1	-0.7
CC(=O)Nc1nc(CC(C)C)cc2c1c(=O)oc1ccccc12	-13.8
CCN(CC)c1ccc(CC(=O)NC(C)Cc2ccccc2)cc1 (configuration not stated)	-12.7
O=C(O)C(Cc1c[nH]c2ccccc12)NS(=O)(=O)c1ccc2ccccc2c1 (configuration not stated)	0.9
CC(C)C(C(=O)OCC(=O)c1cccc([N+](=O)[O-])c1)N1C(=O)[C@@H]2[C@H]3CC[C@H](C3)[C@@H]2C1=O (some centres not stated)	-12.5
COc1ccc(CCNC(=O)c2c(-c3ccccc3Cl)noc2C)cc1	-15.1
COCCNC(=S)N1CCN(Cc2cccc(OC)c2)CC1	-12.5
CCc1nc2ccc(C)cc2c(C(=O)Oc2cccc3cccnc23)c1C	-19.4
O=C1CCCc2c1nc(-c1ccccc1)n2O	0.4
CCOC(=O)c1c(N)sc(C(=O)OCCOC)c1C	-19.6
Nn1c(SCC(=O)N2CCCCC2)nnc1-c1ccncc1	-7.9
CCOc1ccc(CCNC(=O)CN2C(=O)CCSc3ccccc32)cc1	-8.5

The closing six entries of the section before lead into the next:
Molecule	OX1R antag
COCCNC(=S)N1CCN(Cc2cccc(OC)c2)CC1	-12.5
CCc1nc2ccc(C)cc2c(C(=O)Oc2cccc3cccnc23)c1C	-19.4
O=C1CCCc2c1nc(-c1ccccc1)n2O	0.4
CCOC(=O)c1c(N)sc(C(=O)OCCOC)c1C	-19.6
Nn1c(SCC(=O)N2CCCCC2)nnc1-c1ccncc1	-7.9
CCOc1ccc(CCNC(=O)CN2C(=O)CCSc3ccccc32)cc1	-8.5
CCN1CCN(c2nc(-c3ccccc3Cl)nc3ccccc23)CC1	-23.1
COc1ccccc1C(=O)Nc1ccc(C(=O)N2CCCCC2)cc1	-8.3
O=C(c1cc2cc3ccc(Cl)cc3nc2o1)N1CCCCCC1	-12.2
Clc1cccc(Cl)c1CSc1cc2c(nn1)-c1ccccc1CC2	0.5
Cc1ccc(NC(=O)NCC(c2cccnc2)N2CCOCC2)cc1 (configuration not stated)	-20.0
NC(=O)c1ccc(OCC(F)(F)F)nc1	-0.1
Cc1c(N=Cc2nc3ccccc3n2C)c(=O)n(-c2ccccc2)n1C	-16.7
O=C(COc1ccccc1[N+](=O)[O-])Nc1cccc(Cl)c1N1CCOCC1	-34.8
CCOC(=O)C(NC(C)=O)C(=O)Nc1ccc(C(C)(C)C)cc1 (configuration not stated)	0.9
CC(C1CC1)N(C(=O)NC1CCS(=O)(=O)C1)c1ccccc1 (configuration not stated)	0.2
C1=C[C@H]2CC[C@@H]1N(c1ccccc1)O2	5.2
CC[N+](CC)(CC)CC(=O)Nc1ccc(SC(F)F)cc1	2.5
Cc1c(O)ccc2c(=O)c(-c3nncn3-c3ccccc3)coc12	-4.9
CC(=O)N(CN1C(=O)CCC1=O)c1ccc(Cl)c(Cl)c1	-12.5
CCn1cc(C(=O)O)c(=O)c2cnc(N3CCN(C(=S)Nc4ccc(F)cc4)CC3)nc21	-2.9
CCOc1ccc(NC(=S)N(CCc2ccncc2)C(C)C)cc1	-14.5
O=C(CN1CCN(c2ccc(F)cc2)CC1)c1ccc(O)cc1O	9.7
O=C(CN1CCOCC1)n1c2ccccc2c2ccccc21	-9.8
O=C(CN1CCN(c2ccc(F)cc2)CC1)N1N=CCC1c1ccccc1 (configuration not stated)	-9.8
O=S(=O)(Nn1c(O)c(C=C2N=c3ccccc3=N2)sc1=S)c1ccccc1	-10.2
COc1ccc(-n2c(Cc3cccn3C)nnc2SCC(=O)Nc2ccc(Cl)cc2)cc1	-22.2
CCOc1ccc(C(C)(O)CN2CCOCC2)cc1 (configuration not stated)	-12.9
Nc1nc(SCC(=O)c2cccs2)n[nH]1	-1.2
CC(=O)Nc1ccc2c(c1)nc(CCN1CCOCC1)n2C	-9.1
O=C(NCc1ccccc1)c1ccc(C(=O)N(C2CCCCC2)C2CCCCC2)cc1	-17.9
Fc1ccc(-c2cc(-c3nnc4n3CCCCC4)c3ccccc3n2)cc1	-22.7
O=C(Nc1nc2cc3c(cc2s1)OCCO3)c1ccc([N+](=O)[O-])o1	2.7
Nc1ccc2c(c1)nc(Cc1ccccc1)n2CCO	-14.1
CCCCNC(=O)CNC(=O)c1nn(-c2ccc(OC)cc2)c(=O)c2ccccc12	-6.4
COc1cccc(CN2CCNC(=O)C2CC(=O)NCc2cn3ccccc3n2)c1OC (configuration not stated)	-0.6
COc1ccc(N2C(S)=C(C#N)C(=O)NC23CCCCC3)cc1	-14.6
C[C@H](NC(=O)Cc1cccc2ccccc12)C(=O)N1CCCN(C)CC1	3.2
O=C(/C=C/c1ccc2c(c1)OCCCO2)c1ccc2ccccc2c1O	-30.8
CCCCNC(=O)c1ccc2c(c1)N(CC)C(=O)c1ccccc1S2(=O)=O	-7.5
COc1cc2c(cc1OC)C(C(=O)N(C)Cc1ccccc1)C(c1cccnc1)N(C)C2=O (configuration not stated)	-17.6
Cc1ccc(NC(=O)c2ccc(OCC3CCCO3)cc2)c(C)c1 (configuration not stated)	-25.0
CCOC(=O)C1=C(c2ccccc2)N=C2SCC(=O)N2C1c1ccc(O)c(OC)c1 (configuration not stated)	14.3
Cc1ccc(SCc2ccc(C(=O)Nc3ccccc3C(=O)NC(C)C)cc2)cc1	-9.6
O=C(CCc1ccccc1)NNC(=O)Nc1cccc(Cl)c1	-18.4
NC(=O)c1ccccc1N/C=C/C(=O)c1cccs1	-29.6
O=C(c1ccncc1)N1CCN(C2CCC(c3ccccc3)CC2)CC1 (configuration not stated)	-20.0
Cn1c(N)c(C(=O)COC(=O)c2ccc(Cl)c(S(=O)(=O)N3CCCCC3)c2)c(=O)n(C)c1=O	1.4
O=C1/C(=C/c2cccs2)SC(=S)N1c1ccccc1	-24.4
CC(=O)Nc1ccc(C(=O)N2CCc3cc4c(cc3C2C)OCCCO4)cc1 (configuration not stated)	-29.1
CC(C)C(=O)c1cc2c(cc1NC(=O)c1cccs1)OCCO2	-33.2
CCOC(=O)CN1C(=O)C(=O)N(Cc2ccccc2)C1=O	-6.8
O=C(CNC(=O)Cc1ccccc1)NCc1cccc(C(F)(F)F)c1	-4.0
COc1cc2c(cc1NC(=O)c1cccc([N+](=O)[O-])c1)oc1ccccc12	-20.0
CC(=O)Nc1nc2c(C)cc(NC(=O)C3CCCCC3)cc2s1	-7.8
Cc1cccc(OCCNc2cc(N3CCN(C)CC3)ccc2[N+](=O)[O-])c1	-17.1
CCOC(=O)c1cnc2cc(-c3ccc(Br)cc3)nn2c1C	-10.8
CCCc1nn(C)c(C(=O)Nc2cccc(C)c2)c1Cl	-22.6
CCOC(=O)N1CCN(C(=O)C2CCN(S(C)(=O)=O)CC2)CC1	0.3
O=C(CSc1nc(=O)n(CCN2CCOCC2)c2c1CCCC2)Nc1ccc(F)cc1F	-35.1
NC(=O)CC[C@H](NC(=O)c1ccc(F)cc1)C(=O)OCC(=O)NCc1ccc(F)cc1	-15.7
COc1cc(C(=S)N2CCOCC2)cc(OC)c1OC(=O)c1ccc(F)cc1	-28.0

The list continues.
Molecule	OX1R antag
Cc1noc(C)c1C(=O)N1CCCC(C(=O)c2ccc(Cl)cc2)C1 (configuration not stated)	-25.3
CC(=O)N1CCN(CC(=O)Nc2ccccc2Sc2ccc(Cl)cc2)CC1	-6.0
Cc1ccc(CCNS(=O)(=O)c2c(C)nc3sccn3c2=O)cc1	1.6
COc1cc2c(cc1NC(=O)CC1SC(N3CCCC3)=NC1=O)oc1ccccc12 (configuration not stated)	-11.2
O=C(NNC(=S)Nc1ccccc1)c1cccc(Br)c1	-11.2

High-throughput results from PubChem.
